Screens as filed in PubChem.
Env fusion inh – blocks HIV Env-driven cell-cell fusion; HeLa-JRFL Env/CEM21 cell fusion, luciferase; inhibition, % at 12.3 µM; hit rate 1.1% among 360,000; AID 651610;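 active = mean replicate inhibition score of at least 50 and every replicate individually at or above 50; inconclusive = only one of the two criteria met; inactive = mean below 50 and not all replicates reaching 50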;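 also: 0% = plate neutral controls and 100% = maraviroc near 300 nM; one replicate is shown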
MT1-MMP act inh – blocks activation of human MT1-MMP; HT1080 RFP-PRO-GFP cells, GFP/RFP ratio fluorescence, overnight; percent of plate control window, DMSO zero; GFP/RFP ratio change, % at 20 µM; hit rate 0.061% among 360,000; AID 651647;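 active = GFP/RFP ratio change of at least 30% with cell ATP level not reduced by more than half and red fluorescence within 50% of control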; also: strong numbers were not always called active
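Read-out: GFP/RFP fluorescence ratio; Test system: RFP-PRO-GFP reporter HT1080 cells; Compound dosing: single-point 20 µM compound, 1% DMSO; Times: overnight compound exposure at 37 °C.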
PABP FP inh – blocks human PABP binding to poly(A) RNA; hit rate 1% among 290,000; inhibition, % at 35 µM; fluorescence polarization;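 active = 50% or more with normal probe brightness, or confirmed in later tests; inconclusive = above 50% with abnormal brightness, or retests that disagree; inactive = below 50% or failed in later tests; about a fifth of its hits are not listed in these tables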;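 also: calls also rest on retests at 20 µM and on dose response follow-up; controls were probe without protein and protein plus probe with vehicle; some compounds called inactive have numbers as strong as hits; many hits fall short of the cut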
UUG fidelity – alters start codon recognition fidelity in yeast; activity score, % at 18.7 µM; hit rate 0.13% among 350,000; AID 602363; S. cerevisiae UUG-firefly luciferase reporter, luminescence/redox ratio;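 active = replicate mean at a twofold rise or more, about +100% in these data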;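 also: firefly luciferase made from a UUG start codon reports start codon fidelity; reporter light over untreated wells divided by growth signal over untreated wells; some hits fall short of that in this replicate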
eIF4H FP inh – inhibitors of RNA binding by human eIF4H | Q15056 | eIF4H fluorescence polarization binding assay | inhibition, % at 35 µM | hit rate 0.94% among 290,000 | AID 2012;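 active = 50% or more with normal probe brightness, or confirmed in later tests; inconclusive = above 50% with abnormal brightness, or retests that disagree; inactive = below 50% or failed in later tests; about a fifth of its hits are not listed in these tables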;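 also: calls also rest on retests at 20 µM and on dose response follow-up; 0% = protein and probe with vehicle and 100% = probe without protein; strong numbers were not always called active; many hits fall short of the cut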
Rce1 inhib – blocks yeast Ras-converting enzyme | yeast membranes, quenched prenylated peptide cleavage fluorescence | calls only | hit rate 0.27% among 290,000 | Q03530 | AID 2563;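 active = fall in fluorescence gain of 50% or more versus controls, with final raw signal at or below 3038400; inconclusive = same 50% fall but final raw signal above 3038400; inactive = fall in fluorescence gain under 50%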;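 also: plate controls were neutral control wells for no effect and wells lacking membranes for full effect; tested at 10 µM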
Target sequence (Q03530 whole entry, looked up): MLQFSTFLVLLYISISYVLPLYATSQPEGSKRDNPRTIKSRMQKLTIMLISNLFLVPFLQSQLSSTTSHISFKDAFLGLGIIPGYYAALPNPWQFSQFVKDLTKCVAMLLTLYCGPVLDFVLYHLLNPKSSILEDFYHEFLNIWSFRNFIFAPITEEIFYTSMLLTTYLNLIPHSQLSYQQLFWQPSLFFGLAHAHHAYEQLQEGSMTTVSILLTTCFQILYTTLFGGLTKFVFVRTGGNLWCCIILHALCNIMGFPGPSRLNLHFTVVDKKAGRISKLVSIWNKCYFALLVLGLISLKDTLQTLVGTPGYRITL
CSC inhib – cancer stem cell inhibition | cancer stem cell-like cells viability, luminescence | inhibition, % at 7.5 µM | hit rate 1.1% among 300,000 | AID 2717;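 active = mean at 75% or more and at least half the replicates too; inconclusive = mean and replicates disagree; tested in HMLE shEcad cells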;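 also: 0% = median of negative and 100% = median of positive control wells; the first replicate is given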
MT1-MMP act inh RFP – second read-out of MT1-MMP act inh, no call of its own (marks repeat the call); RFP signal change, %; measured here: RFP expression control read;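 0 = vehicle wells; hits needed this value within 50% of zero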
The depositor's hits bear a star; i = inactive; ? = inconclusive; nt = no result given; & = joins results of further samples.

SMILES	Env fusion inh	MT1-MMP act inh	MT1-MMP act inh RFP	PABP FP inh	UUG fidelity	eIF4H FP inh	Rce1 inhib	CSC inhib
CSc1nc(-c2ccccc2)nc(NC(C)=O)c1C(C)=O	-3	1	2	1	nt	-8	i	-8
COc1cccc(NC(=O)C2CCCN(S(=O)(=O)c3cccc4nsnc34)C2)c1 (centres undefined)	nt	-6	0	9	-5	6	i	-13
COc1ccc(CC(=O)NCC2(c3ccc(OC)c(OC)c3)CCCC2)cc1	-8	2	-2	0	3	-2	i	0
Cc1ccc(C)c(-c2nnc(NC(=O)C3=COCCO3)o2)c1	nt	1	4	nt	nt	nt	i	4
COc1ccccc1NS(=O)(=O)c1cc(C)ccc1C	-73	4	2	-8	-18	3	i	-3
COC(=O)[C@@]1(Cc2ccc(F)cc2)[C@H]2c3cc(C(=O)N4CCCC4)n(CCc4ccccn4)c3C[C@H]2CN1C(=O)c1ccccc1	-44	nt	nt	-2	nt	11	nt	-26
COc1ccc(/C=N/NC(=O)c2ccn[nH]2)cc1COc1ccc([N+](=O)[O-])c(C)c1	4	3	-9	-6	-7	-14	i	12
COc1ccc(NC(=O)c2ccco2)cc1NC(=O)c1ccccc1[N+](=O)[O-]	-11	3	0	-2	0	-19	i	-6
CCCCCn1c(N2CCC(C(N)=O)CC2)nc2c1c(=O)[nH]c(=O)n2C	-86	5	3	-2	4	-3	i	-4
COc1ccc(-n2nnnc2/C=C/Nc2cc(C(F)(F)F)ccc2OC)cc1	-1	-2	-3	-15	-7	-6	i	-5
CCC(CO)Oc1cc(NC(=O)c2ccc(OC)cc2)c2ncn(C(C)C)c2c1 (centres undefined)	21	7	7	nt	-8&-7	nt	nt	nt
COc1cc(C(=O)NC2CC3CCCC(C2)N3Cc2ccccc2)cc(OC)c1OC (centres undefined)	4	3	3	-11	3	-7	i	-11
CCOC(=O)/C(C(C)=O)=C1/OC(=O)c2ccccc21	nt	3	2	-8	-18	3	i	nt
Clc1cccc(Cl)c1CSc1nnc([C@@H]2CCCN2)o1	10	3	3	-4	-12	-2	i	9
C1=C(c2ccccc2)Nc2nnnn2C1	-58	-7	3	7	-23	-9	i	-6
CC(=O)c1ccc2c(c1)c1ccccc1n2CC(C)C	-209	-5	-8	0	-7	-7	i	-11
O=C(CN1CCOCC1)Nc1nc(-c2ccc(Cl)cc2)cs1	3	5	-11	-6	-16	6	i	nt
Fc1ccc(CNn2cnnc2SCc2ccc(F)cc2)cc1	20	-1	-5	-4	-33	1	nt	-12
N/C(=N\OC(=O)c1ccccc1[N+](=O)[O-])c1ccccn1	-22	-2	-4	-1	-66	8	i	-7
C=CCN(c1ccc(C(N)=O)cc1)S(C)(=O)=O	nt	0	0	-2	nt	8	nt	-6
O=C(Cc1cccc2ccccc12)Nc1ccc2c(c1)C(=O)NC2=O	20	0	7	1	nt	6	nt	-5
CCCNC(=O)C1(C)CCCN(C(=O)c2cccc(OC(F)(F)F)c2)C1 (centres undefined)	-38	0	-2	nt	-16	nt	nt	nt
Cc1ccc2nc(-c3ccncc3)cc(C(=O)NCc3ccccc3F)c2c1	-12	-3	-8	2	-20	-12	i	-7
Cn1c(Cn2c(=O)sc3ccccc32)nnc1SCC(N)=O	-43	-3	4	6	-18	-13	i	-1
CCCCCCC(NC(=O)c1ccc(C)cc1)C(=O)O (centres undefined)	19	4	6	nt	6	nt	nt	nt
C=CCN=C(NC#N)SCc1ccccc1Cl	nt	-1	0	-9	-12	-2	nt	-1
COc1nnc(-c2ccc(C)c(S(=O)(=O)NC(C)C)c2)c2ccccc12	11	0	-1	-9	-13	-3	i	-22
COc1cccc(NC(=O)Nc2cc(C(=O)O)ccc2N2CC3CC(C2)c2cccc(=O)n2C3)c1 (centres undefined)	-6	-2	1	nt	-1	nt	i	4
COc1ccc(C(=O)NNC2CC(=O)N(Cc3ccc(Cl)cc3)C2=O)cc1OC (centres undefined)	11	2	2	-4	nt	-2	i	-9
CC(=O)N1CCN(C(=O)c2ccc(OC3CCN(Cc4ccccn4)CC3)cc2)CC1	-2	-2	1	3	-15	-7	i	3
CCc1c(C)nc2ncnn2c1N1CCC(C(=O)Nc2ccccc2)CC1	17	0	-9	-10	-6	6	i	2
CCCC(=O)Nc1ccc(Br)c(Cl)c1	nt	3	0	-5	nt	-1	i	4
O=S(=O)(c1ccccc1F)N1CCN(CCOc2ccccc2)CC1	nt	1	-7	nt	-2	nt	nt	8
Cc1nc2ccc(Cl)cc2c(-c2ccccc2F)c1CC(=O)O	-10	7	-4	2	nt	-2	i	3
O=C(c1ccc2nc3ccc(Cl)cc3c(=O)n2c1)N1CCOCC1	-11	-3	-7	1	1	-14	i	nt
O=C(NCc1ccc2c(c1)OCO2)c1ccc(COc2cccc(Cl)c2)o1	nt	-13	-7	-4	-12	-6	i	51
Cc1cc(F)ccc1-c1cc(C(=O)NC2CCCCC2)[nH]n1	7	-5	-2	nt	-26	nt	nt	nt
Cn1c(SCC(=O)N2CCc3ccccc32)nnc1-c1ccc(S(=O)(=O)N2CCCC2)cc1	6	-2	1	-8	nt	-7	i	-10
COc1ccc(N2CCN(C(=O)CN3C(=O)COc4ccccc43)CC2)cc1	-1	0	-3	-3	1	-10	i	-3
COc1ccc(/C=N/Nc2nc(Nc3ccccc3)nc(N3CCCC3)n2)cc1[N+](=O)[O-]	?	-3	-2	-20	-3	-1	i	37
COc1ccc(NC(=O)c2cc3c([nH]c4ccccc43)c(C)n2)cc1	15	2	3	13	-15	7	i	11
CC(=O)c1sc(NC(=O)CS(=O)(=O)c2ccccc2)nc1-c1ccccc1	-9	1	0	nt	0	nt	i	1
O=C(c1ccsc1)N1CCCC(N2CCN(c3cccc(C(F)(F)F)c3)CC2)C1 (centres undefined)	16	-1	-6	21	5	7	i	21
COc1cccc(OCc2ccc(C(=O)NCC3CCCO3)cc2)c1 (centres undefined)	11	6	1	3	nt	1	i	7
O=C(Nc1ccccc1)c1nc[nH]c1C(=O)NCCN(CCNC(=O)c1[nH]cnc1C(=O)Nc1ccccc1)CCNC(=O)c1[nH]cnc1C(=O)Nc1ccccc1	13	0	-2	nt	-11	nt	nt	43
CC(C)c1cccc(-c2ccc3c(c2)S(=O)(=O)c2cccc(C(=O)O)c2C3=O)c1	8	4	4	nt	-4	nt	nt	18
O=C(N/N=C/c1ccccc1OCc1ccccc1)c1cccs1	7	2	1	-6	-15	3	i	-4
CCC(OC(=O)c1nsc(Cl)c1Cl)C(=O)NCC1CCCO1 (centres undefined)	18	1	3	-19	-8	-15	i	25
CCOc1ccc(Nc2cc(C)nc(-n3nc(C)cc3C)n2)cc1	-207	9	-7	4	-39	-3	i	57
COc1cccc(N2CCN(C(=O)c3ccc4ccccc4c3)CC2)c1	-17	4	1	nt	0	nt	nt	nt
Cc1nc(NC(=O)CSc2ccccc2N)sc1C	nt	nt	nt	-6	nt	-2	i	-4
O=C(Nc1cccc(Oc2ccc3c(c2)C(=O)NC3=O)c1)c1cccs1	16	5	5	4	nt	-1	i	4
Cn1cccc1C(C#N)c1ccccc1C#N (centres undefined)	-3	0	0	9	nt	9	i	-14
CCOC(=O)C1=C(C)N(C[C@@H]2CC[C@@H](Cc3ccc(-c4ccccc4)cc3)O2)C(=O)NC1c1ccc(C(F)(F)F)cc1 (some centres undefined)	67*	-6	-17	nt	-3	nt	nt	nt
CCNC(=O)C1CCCN1C(=O)C(CCCN=C(N)N)NC(=O)C(CC(C)C)NC(=O)C(Cc1cn(Cc2ccccc2)cn1)NC(=O)C(Cc1ccc(O)cc1)NC(=O)C(CO)NC(=O)C(Cc1c[nH]c2ccccc12)NC(=O)C(Cc1cnc[nH]1)NC(=O)C1CCC(=O)N1 (centres undefined)	nt	3	4	2	-15	-1	i	-7
O=C(NC1=NCCS1)C1CC(=O)N(c2ccc(F)cc2)C1 (centres undefined)	-4	2	7	-2	-9	7	i	21
COc1cc(C(=O)COC(=O)C2CCN(c3ccc(C(F)(F)F)cn3)CC2)ccc1OC(F)F	-4	2	3	nt	5	nt	i	-6
O=C(c1ccco1)N1CCN(S(=O)(=O)c2ccc(S(=O)(=O)NC3CC3)cc2)CC1	nt	-3	3	-2	nt	-4	i	3
CCCCCC1CC(CC(=O)Nc2ccc([N+](=O)[O-])cc2)OC1=O (centres undefined)	20	3	1	-6	nt	-9	i	6
CC(=O)c1ccc(NC(=O)CC2S/C(=N/N=C3CCCCCC3)NC2=O)cc1 (centres undefined)	nt	2	-4	-9	-19	-2	i	nt
Continued:
SMILES	Env fusion inh	MT1-MMP act inh	MT1-MMP act inh RFP	PABP FP inh	UUG fidelity	eIF4H FP inh	Rce1 inhib	CSC inhib
COc1ccc(C2=C/C(=C\c3cccc(OC(C)=O)c3)C(=O)O2)cc1	18	-5	2	-15	nt	10	i	-6
COc1ccccc1N1CCN(S(=O)(=O)c2ccc(-c3ccc(=O)[nH]n3)o2)CC1	10	0	-7	3	nt	-16	i	-7
CCOC(=O)c1ccc(NC(=O)c2ccc3c(c2)C(=O)N(CC2CCCO2)C3=O)cc1 (centres undefined)	-472	-1	-12	-7	-3	2	i	-5
COc1cc(NC(=O)CSc2nnc3ccccn23)cc(OC)c1	-3	11	-1	nt	-12	nt	nt	-22
COc1ccc(OC)c(S(=O)(=O)Nc2cccc3ccc(O)cc23)c1	9	5	-1	nt	nt	nt	i	14
Cc1cc(C)cc(Oc2c(C(F)(F)F)oc3cc(OCC(=O)O)ccc3c2=O)c1	5	-3	0	-1	4	7	i	2
COCCCn1c(C(=O)N2CCOCC2)cc2c(=O)n3ccccc3nc21	-5	1	2	-6	-10	-4	?	-3
Cc1cc(C)c(NC(=O)CSc2nnc(-c3ccco3)n2N)c(C)c1	-17	-1	-4	0	-21	2	i	-1
Cn1c(SCc2ccccc2)nc2c1c(=O)[nH]c(=O)n2C	-1	-4	-1	0	-10	-12	i	-15
O=C(COC(=O)/C=C/c1ccc(F)cc1)NCC1CCCO1 (centres undefined)	nt	-1	1	nt	-9	nt	nt	-14
Cc1nc2nc(-c3ccccc3)[nH]n2c(=O)c1C	nt	-10	1	0	-3	-5	i	-3
CCOC(=O)C1=C(CSc2nc(CC)c(C)cc2C#N)OC(N)=C(C#N)C1c1ccccc1 (centres undefined)	nt	-26	5	24	42	13	i	-16

Rewritten as labelled records: two of the compounds above
> COc1ccccc1N1CCN(S(=O)(=O)c2ccc(-c3ccc(=O)[nH]n3)o2)CC1
  Env fusion inh: 10 | MT1-MMP act inh: 0 | MT1-MMP act inh RFP: -7 | PABP FP inh: 3 | UUG fidelity: nt | eIF4H FP inh: -16 | Rce1 inhib: i | CSC inhib: -7

> CCOC(=O)C1=C(CSc2nc(CC)c(C)cc2C#N)OC(N)=C(C#N)C1c1ccccc1 (centres undefined)
  Env fusion inh: nt | MT1-MMP act inh: -26 | MT1-MMP act inh RFP: 5 | PABP FP inh: 24 | UUG fidelity: 42 | eIF4H FP inh: 13 | Rce1 inhib: i | CSC inhib: -16

Additional structures.
SMILES	Env fusion inh	MT1-MMP act inh	MT1-MMP act inh RFP	PABP FP inh	UUG fidelity	eIF4H FP inh	Rce1 inhib	CSC inhib
Nc1nc(SCC(=O)Nc2ccccc2Sc2ccccc2)n[nH]1	-34	2	-1	-4	nt	-2	i	-3
COc1ccc(CCNC(=O)C(=O)c2c(C)n(C)c3ccccc23)cc1OC	8	0	5	-5	-32	-8	i	-2
CCOn1c(=O)c(C)[n+]([O-])c2ccccc21	nt	-120	4	-7	-17	-6	i	-13
COc1cc(CCC(=O)OCC(=O)NCc2ccc(Cl)cc2)cc(OC)c1OC	13	-3	3	8	nt	-11	i	nt
COc1ccc(/C=C2\CCCc3c2nc2ccc(C)cc2c3C(=O)O)cc1O	11	1	1	47	5	13	i	1
CC1(C(=O)NC23CC4CC(CC(C4)C2)C3)CC1(Cl)Cl (centres undefined)	nt	5	4	-3	-36	4	i	-7

These rows are one share of the data (hit frequency here may not be typical).
